Ecoli rRNA inh = inhibitors of bacterial rRNA selective over humanized ribosomes; E. coli WT GFP vs humanized-ribosome RFP mutants, fluorescence, 24 h; active compounds read low; DMSO median 0, no signal -100; 350,000 tested, 1.6% active; GFP signal change (wild-type ribosome), % (test concentration not listed);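 active means significant combined selectivity score with lowered wild-type GFP, culture density cut under 30%, mutant RFP and density less affected; inactive means any of these conditions unmet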; further: one replicate is shown; some compounds called inactive have numbers as strong as hits
UCH37 DUB inh = blocks the human deubiquitinase UCH37. purified proteasome/UCH37, Ub-AMC cleavage fluorescence. AID 588478. inhibition, % (no concentration beside the values). 330,000 tested, 0.33% active;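 active means mean of two replicates above 20%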;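 further: 0% = compound-free wells with enzyme and 100% = wells lacking proteasome; stock transfer was 100 nL into about 20 µL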
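Material: Human UCH37 enzyme supplied as purified proteasome complex | Schedule: 30 min compound-proteasome preincubation then 25 min substrate reaction, room temperature | Detection: AMC fluorescence from Ub-AMC cleavage, excitation 355 nm, emission 460 nm | Benchmarks: Wells without proteasome as full block, compound-free enzyme plus substrate as uninhibited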
HNF4A DNA FP = change in binding of human HNF4 alpha to DNA; activity change, % at 10 µM; HNF4a-FITC DNA binding, fluorescence polarization, 1 h; P41235; AID 1224865; 360,000 tested, 0.3% active; in the data active means activity change above about 30%, passing the limit was not always enough;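 further: controls were the assay level and a saturating level of protein; the project sought stronger binding though the title names inhibitors; some compounds called inactive have numbers as strong as hits; positive values seem to mean higher polarization but the record does not say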
Target sequence (P41235 whole entry, looked up): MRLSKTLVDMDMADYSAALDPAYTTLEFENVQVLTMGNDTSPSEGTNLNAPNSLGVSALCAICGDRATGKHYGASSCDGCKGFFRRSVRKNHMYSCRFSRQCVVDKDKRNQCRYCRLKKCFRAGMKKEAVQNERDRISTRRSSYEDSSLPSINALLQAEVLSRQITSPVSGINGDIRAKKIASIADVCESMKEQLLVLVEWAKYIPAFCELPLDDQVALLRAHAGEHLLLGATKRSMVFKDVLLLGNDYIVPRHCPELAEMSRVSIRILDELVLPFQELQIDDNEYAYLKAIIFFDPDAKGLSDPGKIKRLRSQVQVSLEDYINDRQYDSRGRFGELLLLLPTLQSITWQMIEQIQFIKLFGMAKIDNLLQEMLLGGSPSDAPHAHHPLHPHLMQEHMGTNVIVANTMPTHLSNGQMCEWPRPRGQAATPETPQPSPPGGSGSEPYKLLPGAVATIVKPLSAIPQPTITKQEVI
ALR inh = blocks human ALR sulfhydryl oxidase activity; inhibition, % (no concentration beside the values); 290,000 tested, 3.8% active; P55789; purified ALR, DTT oxidation, H2O2 HRP-luminol luminescence; AID 485317;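 active means mean and each replicate at 75% or more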;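 further: stock transfer was 7.5 nL into about 7.5 µL; 0% = neutral wells and 100% = wells with inactivated enzyme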
Target sequence (P55789 whole entry, looked up): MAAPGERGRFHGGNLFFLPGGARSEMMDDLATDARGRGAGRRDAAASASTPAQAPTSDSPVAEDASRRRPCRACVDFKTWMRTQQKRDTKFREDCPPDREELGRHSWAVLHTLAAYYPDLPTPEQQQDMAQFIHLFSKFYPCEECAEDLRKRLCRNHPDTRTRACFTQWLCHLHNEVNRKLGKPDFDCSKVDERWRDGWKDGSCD
Ecoli growth = inhibitors of Escherichia coli growth. OD600 absorbance (test concentration not listed). OD600, 23 h; active compounds read low. 330,000 tested, 0.21% active;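 active means OD600 absorbance below the run mean of sample wells minus 3.6 SD, in any replicate, cut at about 0.56 in these data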;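 further: stock transfer was 300 nL into about 60 µL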
FGF22 binding = binders of recombinant human FGF22 by thermal shift. AID 651658. SYPRO orange fluorescence; percent of sucrose octasulfate shift, DMSO zero. 340,000 tested, 1.5% active. calls only at 9.99 µM. Q9HCT0;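 active means melting point raised past a set limit in the mean and every replicate; three in four hits are not shown here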
Target sequence (Q9HCT0 whole entry, looked up): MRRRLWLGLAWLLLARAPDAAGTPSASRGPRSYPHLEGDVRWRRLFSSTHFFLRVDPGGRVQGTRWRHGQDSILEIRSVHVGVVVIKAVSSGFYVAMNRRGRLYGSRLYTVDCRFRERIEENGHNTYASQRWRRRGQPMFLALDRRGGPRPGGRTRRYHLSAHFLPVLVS
Beta2AR agonist = agonists of human beta-2 adrenergic receptor inducing internalization; P07550; Am2.2-beta2AR cells, FAP receptor internalization, flow cytometry; reference of the scale not given here; response, % (concentration not given with the values); 340,000 tested, 0.43% active; AID 504454;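 active means response above a set limit, near 3 SD of response in nonfluorescent compounds, cut at about 42% in these data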;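 further: stock transfer was 100 nL into about 11 µL; a reference agonist was the positive control; negative values mostly stem from fluorescent compounds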
Ecoli rRNA inh OD600 = also measured in Ecoli rRNA inh; calls as there; OD600 change, %; measured here: OD600 growth;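 optical density of the mix in the first replicate; 0 = DMSO median and -100 = no signal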
Ecoli rRNA inh RFP = further read-out of Ecoli rRNA inh, marked with its call; RFP signal change, %; measured here: RFP humanized mutant strains;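 first replicate; 0 = DMSO median and -100 = no signal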
The depositor's hits bear a star; i = inactive; / = not tested or not shown; & = joins results of further samples.

Compound	Ecoli rRNA inh	Ecoli rRNA inh OD600	Ecoli rRNA inh RFP	UCH37 DUB inh	HNF4A DNA FP	ALR inh	Ecoli growth	FGF22 binding	Beta2AR agonist
Cc1cc(C(=O)CCC(=O)N(C)CC2COc3ccccc3O2)c(C)s1 (stereo not drawn)	-8	-18	-0.7	/	1.6	/	/	i	/
CCc1ccc(C2CC(c3ccco3)=NN2S(C)(=O)=O)cc1 (stereo not drawn)	/	/	/	0.8	20	-2	0.71	/	3
COc1ccc(NC(=O)Nc2ccc(C(=O)N3CCOCC3)cc2)c(OC)c1	/	/	/	3.0	0.8	/	0.71	/	2
c1ccc2c(c1)ccc1ccccc12	9	8	-4.7	3.4	1.9	/	0.71	i	-2
COC(=O)c1ccc(N/C=C\C(=O)c2ccc3c(c2)OCO3)cc1	8	4	-0.9	-2.4	-3.8	-4	0.72	i	4
Cc1cccc(NC(=S)N(CCCN2CCOCC2)C(C)c2cc3ccccc3o2)c1 (stereo not drawn)	-8	-15	4.0	4.0	-0.2	-14	0.65	i	3
CSc1nc(C(=O)N2CCCC(C(=O)c3ccc(Cl)cc3)C2)cs1 (stereo not drawn)	-31*	-22*	-4.0*	2.1	1.2	3	0.68	i	2
CCOc1cccc(N)c1	/	/	/	4.7	3.5	22	0.67	/	-3
COc1ccc2[nH]c3c(=O)n(CCCC(=O)NC4CCCCC4C)c(=S)[nH]c3c2c1 (stereo not drawn)	-1	14	-1.7	/	-0.1	-1	/	i	-6
CC(OC(=O)C1CC1)C(=O)Nc1ncc(Cl)cc1Cl (stereo not drawn)	6	6	4.5	-4.3	-2.8	3	0.69	i	9
CC(OC(=O)c1ccc2ccccc2n1)C(=O)Nc1ccc(N2CCOCC2)cc1 (stereo not drawn)	/	/	/	3.7	1.0	5	0.68	/	8
CC1(C)O[C@H]2CC(=O)OC[C@]23[C@H]2CC[C@@]4(C)[C@H](c5ccoc5)OC(=O)[C@H]5O[C@]54[C@]2(C)[C@@H](O)C[C@@H]13	2	6	-0.5	2.5	-4.9	-2	0.8	i	2
COc1ccccc1NC(=O)C1CCCN(S(=O)(=O)c2ccc3c(c2)CC(C)N3C(C)=O)C1 (stereo not drawn)	1	6	0.6	-1.0	-1.7	-5	0.63	i	1
O=C(CN1CCCC1)N1CCCc2c1c(=O)oc1ccc(OCc3ccccc3)cc21	/	/	/	-131	-1.1	-4	0.71	/	4
Cc1ccc(NC(=O)CSc2nnc(-c3ccco3)n2N)cc1F	20	9	7.1	1.2	3.4	-1	0.68	i	-25
COC(=O)CNC(=O)c1cc(-c2ccncc2)nc2c(C)c(Cl)ccc12	-16	-13	-4.3	1.6	0.1	-26	0.7	/	8
COC(=O)C1=CN(Cc2ccc(F)cc2)C=C(C(=O)OC)C1c1cc(OC)c(OC)c(OC)c1	-24*	-17*	2.8*	-210	1.4	4	0.66	i	1
C=CCN(C(=O)CSc1nnnn1C)c1nc(-c2ccccc2)cs1	8	1	0.0	1.5	-2.4	/	0.72	/	-8
CCn1c(SCC(=O)N2c3ccccc3CC2C)nnc1-c1ccco1 (stereo not drawn)	/	/	/	-4.1	0.7	-3	0.64	/	-18
CCCOc1ccc2[nH]c(C(=O)N/N=C/c3cc(OC)c(OC)c(OC)c3)cc2c1	-25	-68	21	/	0.1	-12	/	i	2
C[C@H]1CN([C@@H](C)CO)C(=O)CCCn2nncc2CO[C@H]1CN(C)C(=O)c1ccccc1	22&1	13&0	1.4&-2.6	/	-3.4	/	/	i	/
O=C(COC(=O)/C=C/c1cccc(C(F)(F)F)c1)Nc1cccc(S(=O)(=O)NC2=NCCC2)c1	-4	-8	4.4	/	0.5	/	/	i	/
COCCCNc1nc(N)c([N+](=O)[O-])c(Nc2cc(OC)ccc2OC)n1	9	6	0.4	/	5.1	0	/	i	3
COc1ccc(NS(=O)(=O)c2ccc(N3C(=O)CCC3=O)cc2)cc1	/	/	/	-3.5	-0.7	-36	0.67	/	0
Cc1c(P(=O)(c2ccccc2)c2ccccc2)c2ccccc2n1C	-13	-58	-3.9	/	2.0	/	/	i	/
CCOc1ccccc1NC(=O)CSCC(=O)Nc1ccccc1	/	/	/	1.0	-2.5	48	0.69	/	-1
Nc1nc(N2CCN(c3ccc(F)cc3)CC2)n[nH]1	-16	-6	-3.8	2.7	-4.9	98*	0.68	i	1
C=CCSc1nc(O)c(C2OC(=O)c3c2ccc(OC)c3OC)c(=O)n1-c1ccccc1 (stereo not drawn)	1	3	-1.7	1.9	2.4	97*	0.66	i	4
COc1cc2c(cc1OC)/C(=C/C(=O)OCc1ccccc1)OC2	-3	6	10	/	3.1	/	/	i	/
Cc1cc(S(=O)(=O)Nc2ccc(C(=O)NCCCn3ccnc3)cc2)ccc1F	2	-2	0.2	0.8	-5.6	-2	0.67	i	3
CCCOC(=O)CC1C(=O)NCCN1C(=O)OC(C)(C)C (stereo not drawn)	3	4	0.3	2.7	-8.0	-4	0.72	i	-1
CCOCC(=O)Nc1ccc2c(c1)N(S(=O)(=O)c1cccs1)CCC2	2	-1	1.1	1.9	2.1	/	0.7	i	-5
O=C(CN1CCN(Cc2ccccc2)CC1)Nc1ccc([N+](=O)[O-])cc1C(=O)Nc1ccccc1F	/	/	/	4.1	-3.7	-13	0.66	/	3
FC(F)(F)c1cc(-c2cccs2)nc(NCc2ccco2)n1	/	/	/	-6.7	-3.3	26	0.75	/	-11
COc1ccc(OCC(=O)NC(=S)N2CCCc3ccccc32)cc1	-2	5	-0.9	2.1	-1.3	60	0.63	i	5
CCCCS(=O)CC(O)COc1ccc(C(C)(C)C)cc1 (stereo not drawn)	/	/	/	3.7	4.7	5	0.69	/	-2
CCC(C)c1ccc(NC(=O)C2=CC=CN3CCS(=O)(=O)N=C23)cc1 (stereo not drawn)	6	15	-0.6	-2.1	-4.8	-3	0.66	i	5
CN(C)N1C(=O)CC(C)(c2ccc([N+](=O)[O-])cc2)C1=O (stereo not drawn)	1	1	-1.2	0.7	0.2	-1	0.69	i	1
CCOc1ccc(N=C2NC(=O)S/C2=C\c2ccc(Cl)cc2)cc1	/	/	/	2.8	-5.8	-6	0.71	/	4
CC(=O)NN1C(=O)c2ccccc2NC1c1ccc(N(C)C)cc1 (stereo not drawn)	0	0	-1.9	-1.2	-1.0	13	0.62	i	-3
COc1ccc(Cl)cc1C(=O)Nc1ccncc1	-3	-12	-3.5	4.8	3.1	-9	0.61	i	3
C/C=C\C(=O)Nc1cccc(C2=NOC3(C2)C[C@H](C(N)=O)N(C(=O)/C=C/CC)C3)c1 (stereo partly drawn)	-1	0	6.8	1.7	5.0	-4	/	i	3
Cn1ccc2c(-c3ccc(F)nc3)cc3c(c21)C1CCC3O1 (stereo not drawn)	1	9	-1.8	/	3.5	/	/	i	/
O=S(=O)(c1ccc(Br)s1)N1CCCCC1	/	/	/	7.9	-1.3	1	0.7	/	4
CCNc1nc(CN2CCCCC2)nc2scc(-c3ccccc3)c12	-4	-7	7.7	/	5.8	0	/	i	-5
CCOP(=O)(c1ccccc1Cl)C1(O)CCCCC1 (stereo not drawn)	/	/	/	2.8	6.0	-31	0.8	/	0
Cc1ccc(C)c(-n2nnnc2SCC(=O)c2ccc3c(c2)NC(=O)CO3)c1	/	/	/	6.1	2.1	-1	0.66	/	-5
CCOC(=O)c1c(NC(=O)CCl)sc(CN(C)C)c1-c1ccccc1	8	-1	10.0	7.6	0.2	57	0.65	i	-9
CC(C)n1ncc2c(C(=O)NCc3cccnc3)cc(C3CC3)nc21	-3	-6	-3.1	/	0.1	/	/	i	-3
CCNC(=S)Nc1ccc(C)c(S(=O)(=O)Nc2ccccc2OC)c1	0	6	1.4	3.3	-0.4	4	0.69	i	-4
COC(=O)c1cc2c([nH]c1=O)CCCC2=O	15	9	0.7	-16	-3.5	/	0.67	i	4
CC1(C)CC(=O)C(C=NCc2cccnc2)=C(O)C1	/	/	/	3.2	-0.1	-14	0.71	/	5
COc1cccc(CC(=O)OCC(=O)NC2CCCCCC2)c1	6	4	1.9	0.2	1.0	5	0.71	i	0
CCCCn1c(N)c(N(CCOC)C(=O)C(C)N2C(=O)c3ccccc3C2=O)c(=O)[nH]c1=O (stereo not drawn)	13	22	-2.1	-0.5	-1.4	6	0.7	i	4
O=C(CSc1n[nH]c(-c2cc(Cl)ccc2Cl)n1)NCCN1C(=O)CSC1=O	/	/	/	-0.6	-0.1	-3	0.69	/	-4
CCOc1ccc(CN2CCC(n3nccc3NC(=O)c3ccccc3OC)CC2)cc1	3	3	-1.3	2.7	-2.1	0	0.68	i	-1
COc1ccc(Cl)cc1N(CC(=O)Nc1ccccc1C(=O)NCc1ccco1)S(C)(=O)=O	/	/	/	0.5	-4.0	/	0.68	/	-18
C=CCN1C(=O)C(Cc2ccccc2)SC1=Nc1ccc(C(=O)O)cc1 (stereo not drawn)	/	/	/	0.6	1.3	-2	0.64	/	2
Cc1ccc(NC(=O)C2CC2c2ccccc2)cc1 (stereo not drawn)	9	8	-2.0	5.1	-2.8	-9	0.71	i	-3
O=C(COC(=O)c1cnccn1)Nc1ccc(Cl)cn1	3	0	-2.4	-0.8	-3.7	30	0.65	i	-3

Further results follow:
Compound	Ecoli rRNA inh	Ecoli rRNA inh OD600	Ecoli rRNA inh RFP	UCH37 DUB inh	HNF4A DNA FP	ALR inh	Ecoli growth	FGF22 binding	Beta2AR agonist
COc1ccccc1NC(=O)c1ccccc1SCC(=O)N1CCCC1	-2	-13	0.9	/	0.5	/	/	i	/
N#C/C(=C\c1ccc[nH]1)C(=O)Nc1ccccc1[N+](=O)[O-]	10	6	1.7	9.7	-16	-7	0.68	i	2
Oc1c(CN2CCN(c3ccc(F)cc3)CC2)cc(Cl)c2cccnc12	/	/	/	2.4	-3.2	-5	0.33*	i	23
O=C(NCc1ccc2c(c1)OCO2)c1cc(S(=O)(=O)N2CCCCC2)ccc1F	/	/	/	4.7	2.6	-16	0.72	/	-1
COc1ccc(N2CCN(C(=O)CCc3ccc(S(=O)(=O)NCC(C)C)cc3)CC2)cc1	/	/	/	-0.5	-0.9	15	0.72	/	-2
CCN(C(=O)COC(=O)/C=C/c1ccccc1)C1CCCCC1	-3	8	1.4	0.2	3.0	-3	0.69	i	-1
COc1nc(OC)nc(N2CCC(C(=O)NCc3cccs3)CC2)n1	/	/	/	4.2	1.1	-2	0.68	/	-11
c1ccc(-c2onc(-c3ccco3)c2-c2ccc3[nH]ccc3c2)cc1	-5	12	0.2	-2.8	2.3	-8	0.81	i	-1
Cc1cccc(C)c1NC(=O)C(=O)NCc1ccccn1	/	/	/	-2.8	0.1	-3	0.67	/	3

Some entries already given, limited to UCH37 DUB inh, Beta2AR agonist and FGF22 binding.
mol	UCH37 DUB inh	Beta2AR agonist	FGF22 binding
O=C(NCc1ccc2c(c1)OCO2)c1cc(S(=O)(=O)N2CCCCC2)ccc1F	4.7	-1	/
COc1ccc(N2CCN(C(=O)CCc3ccc(S(=O)(=O)NCC(C)C)cc3)CC2)cc1	-0.5	-2	/
CCN(C(=O)COC(=O)/C=C/c1ccccc1)C1CCCCC1	0.2	-1	i
COc1nc(OC)nc(N2CCC(C(=O)NCc3cccs3)CC2)n1	4.2	-11	/

High-throughput results (PubChem)

These rows are one share of the data, so the mix of outcomes need not match the whole.
